Source: PubChem (several laboratories)
A1 inh: inhibitors of the anti-apoptotic protein A1, read as caspase activation; MEF A1-2A-BIM cells, Caspase-Glo 3/7 luminescence, 3 h; percent of clofoctol response, vehicle zero; caspase activation, % (concentration not given with the values); actives 0.066% (n = 330,000); AID 2462;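 active = over half of replicate activation scores above 10%, or exactly half above 10 with the replicate mean above 10; inconclusive = replicate mean below 10 yet half the replicates above 10; inactive = over half of replicates below 10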;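 note: wells of about 30 µL received 50 nL stock; many hits fall short of the cut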
LANA-H2A inh: blocks KSHV LANA binding to histone H2A/H2B; Q9QR71; cell-free LANA-H2A/H2B peptide, fluorescence polarization; inhibition, % (test concentration not listed); actives 0.6% (n = 320,000); in the data active = inhibition mostly above about 10%, no sharp cut-off; inactive = mostly below about 6.7%;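 note: stock transfer was 7.5 nL into about 10 µL; 0% = median of vehicle wells and 100% = median of positive control wells; one replicate is shown; the record names a cut of 25% in any replicate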
Target sequence (Q9QR71 whole entry, looked up): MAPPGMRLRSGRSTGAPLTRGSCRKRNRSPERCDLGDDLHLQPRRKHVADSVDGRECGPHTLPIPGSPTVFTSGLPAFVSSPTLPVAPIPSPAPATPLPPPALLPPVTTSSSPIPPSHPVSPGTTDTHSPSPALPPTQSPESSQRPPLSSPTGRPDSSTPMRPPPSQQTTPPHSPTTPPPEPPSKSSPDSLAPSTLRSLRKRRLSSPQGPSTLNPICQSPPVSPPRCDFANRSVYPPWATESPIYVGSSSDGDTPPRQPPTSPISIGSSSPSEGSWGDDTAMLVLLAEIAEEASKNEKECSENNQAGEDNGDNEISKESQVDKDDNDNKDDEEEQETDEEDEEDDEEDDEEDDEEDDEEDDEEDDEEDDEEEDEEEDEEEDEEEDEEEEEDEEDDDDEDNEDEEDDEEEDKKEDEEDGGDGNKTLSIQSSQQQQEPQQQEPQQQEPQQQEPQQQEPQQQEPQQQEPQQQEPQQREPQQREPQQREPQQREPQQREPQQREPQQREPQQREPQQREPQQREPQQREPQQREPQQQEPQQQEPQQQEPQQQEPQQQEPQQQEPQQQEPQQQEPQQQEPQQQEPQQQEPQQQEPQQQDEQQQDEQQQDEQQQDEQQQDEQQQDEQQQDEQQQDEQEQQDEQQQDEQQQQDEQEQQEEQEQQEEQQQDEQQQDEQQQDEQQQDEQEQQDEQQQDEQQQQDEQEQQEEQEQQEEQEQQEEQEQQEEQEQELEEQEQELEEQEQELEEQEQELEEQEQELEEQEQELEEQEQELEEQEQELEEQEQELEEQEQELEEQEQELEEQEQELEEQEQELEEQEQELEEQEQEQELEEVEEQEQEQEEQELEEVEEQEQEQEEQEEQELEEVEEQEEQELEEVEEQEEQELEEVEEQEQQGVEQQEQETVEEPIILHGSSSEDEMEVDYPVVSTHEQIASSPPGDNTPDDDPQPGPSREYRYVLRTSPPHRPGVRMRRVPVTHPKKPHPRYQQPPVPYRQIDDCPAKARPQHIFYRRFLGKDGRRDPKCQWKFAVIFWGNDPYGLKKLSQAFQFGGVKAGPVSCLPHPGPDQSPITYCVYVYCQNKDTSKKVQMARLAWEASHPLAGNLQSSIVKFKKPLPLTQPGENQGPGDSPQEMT
Calb FLC: C. albicans growth modulation with fluconazole; C. albicans CaCi-2 (fluconazole-resistant clinical isolate) + fluconazole, Alamar Blue growth, 48 h; growth inhibition, % (test concentration not listed); actives 0.57% (n = 300,000);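 active = most replicates above 75%; inconclusive = exactly half above 75%; inactive = most below 75%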;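 note: all wells also contain fluconazole at 8 µg/ml as a sub-toxic cotreatment; 0% = median of DMSO wells and 100% = median of geldanamycin control wells; wells of about 8 µL received 7.5 nL stock; the first replicate is given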
T cruzi inh: blocks replication of Trypanosoma cruzi; T. cruzi beta-gal in NIH3T3, luminescence, 90 h; inhibition, % (test concentration not listed); actives 1.4% (n = 300,000); AID 1885;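 active = mean inhibition across valid replicates above about 55%, limit read from the data; inconclusive = mean below that limit but half or more replicates reach it; inactive = mean below it, under half of replicates reach it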;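 note: signal also drops with host cell toxicity which is not excluded here; 0% = plate median of DMSO wells and 100% = zero luminescence signal; higher percent means less beta-gal luminescence so fewer parasites; stock transfer was 50 nL into about 50 µL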
Vif TR-FRET: HIV-1 Vif–A3G interaction blockers – biochemical, TR-FRET, GST-Vif 1-94, biotin-A3G peptide, dose response retest, primary screen (AID 1117319) | TR-FRET GST-Vif / biotin-A3G peptide binding; higher % means a stronger effect; test concentration not given here; strong numbers were not always called active | inhibition, %; hits with a dose series show IC50 in µM | actives 0.57% (n = 260,000);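 active = above the screen mean plus three standard deviations and confirmed in dose response; inconclusive = results disagree or hit not tested in dose response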;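 note: Vif residues 1-94 fused to GST binding biotinylated APOBEC3G peptide 110-148; 0% = full assay without inhibitor and 100% = GST in place of GST-Vif; retest series ran down from 100 µM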
RanGTP-Impb inh: disruptors of Ran-importin-beta complex formation – biochemical, FRET, CFP-Ran, YFP-importin-beta, homogeneous, primary screen; cell-free CFP-Ran/YFP-importin-beta FRET ratio; inhibition, % (test concentration not listed); actives 1.1% (n = 300,000);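 active = most replicates above 15%; inconclusive = exactly half above 15%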;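 note: 0% = DMSO wells and 100% = Ran loaded with GDP instead of GTP; wells of about 40 µL received 100 nL stock; the first replicate is given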
AF4-AF9 inh: inhibitors of human MLL-AF4/AF9 interaction. inhibition, % at 10 µM. AlphaScreen, biotin-AF4 peptide binding to FLAG-AF9. actives 0.47% (n = 350,000);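 active = every replicate reaching a set inhibition limit, whatever the replicate mean, cut at about 25% in these data; inconclusive = mean inhibition reaches that limit but some replicates miss it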;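 note: 0% = plate neutral control median and 100% = total signal loss; the record names both 10 and 1 µM as test concentration; the first replicate is given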
Beta cell apopt: beta cell apoptosis inhibition | INS-1E cytokine-induced death, ATP luminescence, 48 h; percent of positive-control rescue, neutral wells zero | protection from apoptosis, % (test concentration not listed) | actives 0.8% (n = 300,000);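 active = all replicates at 75% or more, or half of them and the mean; inconclusive = half reach 75% but not the mean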;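 note: 0% = cytokine-treated negative control wells and 100% = positive control rescue; higher means more ATP so stronger rescue from cytokine killing; wells of about 40 µL received 100 nL stock; the first replicate is given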
An asterisk follows results filed as active; i = inactive; ? = inconclusive; / = not tested or not shown.

SMILES	A1 inh	LANA-H2A inh	Calb FLC	T cruzi inh	Vif TR-FRET	RanGTP-Impb inh	AF4-AF9 inh	Beta cell apopt
COc1ccc(C)cc1NC(=O)CSc1nnc(-c2ccc(OC)c(OC)c2)n1N	-1.0	-1.2	-6	-35	-2%	-2.8	/	2
CSc1cccc(NC(=O)C2CCCN(S(=O)(=O)c3cccs3)C2)c1 (stereo not drawn)	0.5	-4.4	5	8	/	2.5	2.7	-7
Cc1cc(Nc2cccc(F)c2)nc(NCc2ccccc2)n1	-0.4	2.5	45	50	/	2.8	0.7	106*
O=[N+]([O-])c1cc(/C=N\O)ccc1Oc1ccc(F)cc1	0.4	0.5	1	7	/	-3.9	2.5	-2
CCc1nnc(SCc2ccc(OC)c(Br)c2)n1N	0.0	-3.1	-7	-4	4%	3.8	/	-1
CCOC(=O)C1(Cc2cccc(OC)c2)CCCN(Cc2ccc(NC(C)=O)cc2)C1 (stereo not drawn)	-0.3	1.2	-9	1	3%	0.5	-0.3	1
CCC(C)(C)NC(=O)C(c1ccc(OC)cc1)N(C(=O)CCC(=O)Nc1cc(C)on1)c1ccc(F)cc1 (stereo not drawn)	1.0	3.1	0	3	/	-4.2	2.3	-1
CC(C)c1nnc(NC(=O)COc2ccccc2[N+](=O)[O-])s1	-0.2	-2.5	2	-12	13%	-0.6	2.3	1
CCO[C@H]1OC(C(=O)N2CCN(Cc3ccc4c(c3)OCO4)CC2)=C[C@@H](c2ccccc2)[C@@H]1CCCO	0.1	7.2	1	31	0%	2.0	1.2	4
CN(C)CCCN(C(=O)CCc1ccccc1)c1nc2ccc(Br)cc2s1	0.3	-3.2	-2	49	8%	5.1	26*	14
CCCCn1nnnc1NCc1ccc(N2CCCC2)cc1	-1.3	1.7	6	35	9%	?	/	4
COCCN(CC(=O)Nc1cccc(C)c1C)C(=O)c1oc2ccccc2c1C	0.0	3.0	/	/	/	/	0.9	-16
CN(Cc1nccn1C)C(=O)C1CCC(=O)N(CCc2ccc(Cl)cc2)C1 (stereo not drawn)	0.1	0.5	1	11	/	-6.3	0.1	-6
NS(=O)(=O)c1cccc(NC(=O)COC(=O)Cc2ccc(Cl)cc2)c1	0.0	4.0	3	-11	/	1.0	-16	1
COc1ccc(/C=C/C(=O)OCC(=O)c2c(N)n(C)c(=O)n(C)c2=O)cc1	-0.7	-10	-2	-9	-11%	-1.2	/	/
COc1ccc(N2C(=O)C(=O)/C(=C(/O)c3ccc(C)cc3)C2c2cccnc2)cc1 (stereo not drawn)	0.5	-4.6	15	-9	?	-2.5	/	-2
CSCC[C@H](NC(=O)Cc1ccc(Cl)cc1)C(=O)N1CCC2(CC1)NCCc1[nH]cnc12	?	4.1	-4	-21	/	-1.8	4.2	-1
COc1ccc(CNCc2ccc3c(c2)OCO3)c(OC)c1OC	-0.4	-1.7	-5	-18	/	-1.6	-5.9	/
COc1cc(/C=C2\SC(=O)NC2=O)ccc1OCC(=O)N1CCOCC1	-0.1	9.9	/	/	-7%	/	-1.4	4
CS(=O)(=O)N1CCc2ccccc2C1	0.8	5.7	26	-4	2%	0.2	/	-2
CC(C)c1ccc(NC(=O)NC2CCCCC2)cc1	-0.7	3.6	-22	26	4%	1.1	12	-5
CSc1ccccc1OCc1cc(C(=O)N2CCN(c3ncccn3)CC2)no1	0.6	-2.3	4	6	8%	-0.4	0.3	2
Cc1ccc(C(=O)NCC(=O)OCC(=O)c2c(N)n(C)c(=O)n(C)c2=O)s1	-0.6	7.4	-4	-13	7%	-3.3	/	-4
CCOC(=O)C1CCCN(C(=O)c2cc(-c3ccncc3)nc3ccccc23)C1 (stereo not drawn)	0.5	-0.1	/	0	-7%	-3.9	1.0	-2
COCCNC(=O)CN(C(=O)CCC(=O)Nc1ccccn1)c1ccc(F)cc1	-0.2	-14	-3	-9	3%	0.9	/	-6
O=C1CC(N2CCN(c3nc4ccccc4s3)CC2)C(=O)N1c1ccc(F)cc1 (stereo not drawn)	-0.7	2.6	5	-7	-4%	3.2	/	4
N#CC1(Cc2ccc([N+](=O)[O-])cc2)c2ccccc2C=CN1C(=O)c1ccccc1 (stereo not drawn)	0.5	3.0	18	19	-9%	0.0	/	10
CCCCn1cnc2c1c(=O)n(C)c(=O)n2C	-0.5	2.4	-12	-8	75%	3.1	/	-2
Cc1nc([N+](=O)[O-])c(N2CCN(C)CC2)n1Cc1ccccc1	0.2	4.2	-5	5	-7%	3.7	/	-1
O=c1oc2ccccc2n1Cc1ccccc1F	0.9	0.7	-3	-12	-6%	-1.8	-1.8	-2
c1ccc2c(N3CCOCC3)c3c(nc2c1)CCC3	0.5	-7.4	-8	5	/	0.0	-3.3	2
COc1ccc(OC2CCN(S(=O)(=O)c3cccc(F)c3)CC2)cc1	-0.4	-2.3	13	3	9%	8.6	-0.6	0
O=C(CSC1=Nc2ccccc2C2=NC(CC(=O)NCc3ccco3)C(=O)N12)NCC1CCCO1 (stereo not drawn)	0.8	-0.7	2	1	26%	0.1	/	-5
O=C(NCC(=O)N1CC=C(c2ccccc2)CC1)c1ccc(F)cc1	-0.5	4.8	/	/	-3%	/	-2.2	-1
COc1ccc(NCC(=O)Nc2ccc(Cl)cc2C)c(OC)c1	0.1	-0.7	18	52	8%	-1.5	14	36
OCCCNC(=S)Nc1ccc2nccnc2c1	-0.2	-2.9	4	-1	-3%	-2.5	-2.8	-7
COc1ccc(S(=O)(=O)N2CCN(C(=O)CN3C(=O)NC4(CCCC4)C3=O)CC2)cc1	0.3	1.2	4	-15	/	1.5	-0.7	/
CCCCNCCCOc1ccc(C)cc1Br	1.0	-3.8	-4	47	11%	-2.2	0.5	8
O=C(c1ccc(Cl)nc1)N1CCc2ccccc2C1	1.2	3.4	-3	-17	-4%	1.2	/	2
CCCN(CC1CC1)C(=S)NC(=O)c1ccccc1Br	-0.1	6.4	/	/	-7%	/	1.7	-2

Among those listed so far, these contain a furan ring, fused or not:
SMILES	A1 inh	LANA-H2A inh	Calb FLC	T cruzi inh	Vif TR-FRET	RanGTP-Impb inh	AF4-AF9 inh	Beta cell apopt
COCCN(CC(=O)Nc1cccc(C)c1C)C(=O)c1oc2ccccc2c1C	0.0	3.0	/	/	/	/	0.9	-16
O=C(CSC1=Nc2ccccc2C2=NC(CC(=O)NCc3ccco3)C(=O)N12)NCC1CCCO1 (stereo not drawn)	0.8	-0.7	2	1	26%	0.1	/	-5

Other structures
SMILES	A1 inh	LANA-H2A inh	Calb FLC	T cruzi inh	Vif TR-FRET	RanGTP-Impb inh	AF4-AF9 inh	Beta cell apopt
Cc1ccc(NC(=O)c2c(-c3ccccc3)noc2C)nc1	0.4	-5.0	-3	-24	/	?	/	-2
Cc1ccc(S(=O)(=O)CC2CSc3nnc(C)c(=O)n32)cc1 (stereo not drawn)	-0.6	0.2	-5	-15	-2%	-5.4	/	0
O=C(Cn1ncc(Cl)c(Cl)c1=O)N1CCN(S(=O)(=O)c2ccc3ccccc3c2)CC1	0.6	2.9	/	51	-26%	/	/	14
COc1ccc(OC(=O)C2CC(=O)N(c3ccc(C)cc3)C2)cc1 (stereo not drawn)	1.0	-1.3	0	-18	7%	22*	-3.4	-5
CCNC(=O)COC(=O)c1ccc(-c2nc3ccccc3s2)s1	-10	-3.5	21	-5	-1%	0.6	-1.5	5
O=C(CNC(=O)c1ccc(Cl)cc1)OCN1C(=O)c2ccccc2C1=O	0.6	3.5	/	/	-10%	/	-2.5	-7
CCC[C@@H](CN1CCC[C@H]1CN1C(N)=NC[C@H]1C(C)C)N1C[C@@H](Cc2ccccc2)N(CCCC2CCCC2)C1=N	0.7	i	/	/	/	/	16	-7
CC1CCN(C(=O)Cn2nnc(-c3ccc(N)cc3)n2)CC1	-0.2	5.8	-2	7	/	1.8	4.3	-8
O=C(CN1C(=O)CCSc2ccccc21)Nc1ccc2c(c1)OCO2	0.8	-4.8	8	5	8%	3.3	/	-2
Cc1ccc(OCCn2cnc3c(N)ncnc32)cc1	0.3	-3.1	32	-22	-3%	-1.7	/	4

AF4-AF9 inh, hit marks shown above
| structure | LANA-H2A inh | Vif TR-FRET | RanGTP-Impb inh | AF4-AF9 inh |
| --- | --- | --- | --- | --- |
| CN(C)CCCN(C(=O)CCc1ccccc1)c1nc2ccc(Br)cc2s1 | -3.2 | 8% | 5.1 | 26* |

Going on with the list:
SMILES	A1 inh	LANA-H2A inh	Calb FLC	T cruzi inh	Vif TR-FRET	RanGTP-Impb inh	AF4-AF9 inh	Beta cell apopt
O=C1C=C(c2cc(F)ccc2F)C[C@@H](c2ccc(F)cc2)C1	-0.2	1.8	/	/	/	/	0.4	-2
O=C(CCN1C(=O)c2ccccc2C1=O)Oc1ccc2ccccc2c1	0.5	0.2	5	-6	-11%	0.5	/	-11
Cc1nccn1-c1ccc(C(F)(F)F)cc1NC=O	-0.9	-1.9	-5	-12	-4%	-0.1	/	-4
O=C(NC1CCN(Cc2ccccc2)CC1)C1COc2ccccc2O1 (stereo not drawn)	1.9	-1.2	19	33	0%	3.9	/	2
COc1cccc(C(=O)NCc2cccnc2)c1	1.3	2.8	0	-23	15%	4.7	?	/
CCC(C)(C(=O)NC1CCCC1)N(C(=O)CC1NC(=O)NC1=O)c1ccc(C)cc1 (stereo not drawn)	2.0	1.8	-13	-2	7%	2.3	/	1
Cc1c(C(=O)NCCc2ccc3c(c2)OCCO3)oc2ccccc12	-0.5	-1.3	26	-9	9%	5.7	/	7
CN(C)c1ccc(C(CC(=O)c2ccccc2)C2CCCCC2=O)cc1 (stereo not drawn)	-0.3	5.4	0	22	/	3.8	-101	-3
Cc1cc(Cl)ccc1OCc1nc(-c2ccc(O)cc2)n[nH]1	-0.5	2.5	1	-8	-3%	4.7	/	/
CN1CCc2c(C#N)c(N3CCCCC3)nc(NCc3ccccc3)c2C1	0.8	-5.5	-8	56*	0%	3.6	/	-6
COc1ccc(N2C(=O)CC(N3CCN(S(=O)(=O)c4c(F)cccc4F)CC3)C2=O)cc1OC (stereo not drawn)	0.0	1.5	26	-9	7%	-5.1	/	-3
Cn1cc(/C=C(\C#N)C(=O)Nc2ncc(Cc3cccc(Cl)c3)s2)c2ccccc21	-0.3	4.1	-12	37	/	-115	/	11
CC1CC(=O)N(c2ccc(NCCc3ccc(O)cc3)c([N+](=O)[O-])c2)C1=O (stereo not drawn)	0.4	1.4	-8	-4	3%	1.2	13	-4
Cc1ccc(C(=O)NCCSc2ccc(Cl)cc2)cc1S(=O)(=O)Nc1ccccc1	0.3	-1.2	35	54	3%	-0.2	3.5	-4
CN(C)/C=N/C1=C(C#N)C(c2ccc(Br)cc2)c2ccc3ccccc3c2O1 (stereo not drawn)	-0.1	-1.4	20	44	-21%	21*	2.7	/
CCOc1cc(C)c(S(=O)(=O)Nc2ccc(Cl)cn2)cc1C	0.0	1.7	14	4	7%	-0.8	/	/
Cc1cccc(NC(=O)c2ccc(-c3ccccc3[N+](=O)[O-])o2)c1	-1.8	2.2	-21	11	/	1.9	3.4	-2
O/N=C1/CC/C(=N\O)c2nn(-c3ccccc3)nc21	-5.4	3.2	/	/	1%	/	/	8
